A1 apoptosis 2 = compounds inhibiting A1, read as caspase activation; AID 2465; caspase activation, % (test concentration not listed); MEF A1-2A-BIM cells, caspase-Glo luminescence, 3 h; percent of clofoctol response, DMSO zero; 24,000 tested, under 10 active; in the data active means caspase activation above about 5.9%;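 further: wells of about 30 µL received 50 nL stock; the first replicate is given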
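System: mouse embryonic fibroblasts co-expressing A1 and BIM (A1-2A-BIM), primed for A1 dependence; amount: 2500 cells/well; doses: 50 nL pinned compound; schedule: cells settled overnight, compound exposure 3 h at 37 °C, 5% CO2; detection: Caspase-Glo 3/7 luminescence, 1 h at room temperature; read-out: Caspase-3/7 activation, seen as rise in luminescence signal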
* = called active by the depositor.

No.	Structure	A1 apoptosis 2
1	C[C@@H]1CCCCO[C@@H](CN(C)C)[C@@H](C)CN([C@H](C)CO)C(=O)c2cc(N(C)C)ccc2O1	-0.1
2	C[C@H]1CCCCO[C@H](CN(C)C(=O)CCC(F)(F)F)[C@@H](C)CN([C@@H](C)CO)C(=O)c2cc(NC(=O)Nc3ccc4c(c3)OCO4)ccc2O1	0.0
3	Cc1noc(C)c1NC(=O)N(C)C[C@H]1OCCCC[C@@H](C)Oc2ccc(NC(=O)NC(C)C)cc2C(=O)N([C@@H](C)CO)C[C@H]1C	0.6
4	C[C@@H]1CN([C@H](C)CO)C(=O)Cc2cc(NC(=O)Nc3cccc4ccccc34)ccc2O[C@@H]1CN(C)S(=O)(=O)c1ccc(Cl)cc1	1.2
5	C[C@@H]1CCCCO[C@H](CN(C)Cc2ccc3c(c2)OCO3)[C@H](C)CN([C@H](C)CO)C(=O)c2cc(NS(C)(=O)=O)ccc2O1	0.1
6	COc1ccc(S(=O)(=O)Nc2cccc3c2O[C@@H](CN(C)S(=O)(=O)c2ccc(C)cc2)[C@@H](C)CN([C@@H](C)CO)C3=O)cc1	1.6
7	C[C@@H]1CCCCO[C@H](CN(C)S(=O)(=O)c2ccc(F)cc2)[C@@H](C)CN([C@@H](C)CO)C(=O)c2cc(NC(=O)Nc3cccc4ccccc34)ccc2O1	0.7
8	C[C@@H]1CN([C@H](C)CO)C(=O)CCCn2nncc2CO[C@@H]1CN(C)S(=O)(=O)c1ccc(C#N)cc1	0.0
9	CNC[C@@H]1OCCCC[C@@H](C)Oc2ccc(NC(=O)C3CCCCC3)cc2C(=O)N([C@H](C)CO)C[C@@H]1C	0.4
10	Cc1noc(C)c1NC(=O)Nc1ccc2c(c1)C(=O)N([C@@H](C)CO)C[C@@H](C)[C@H](CN(C)S(=O)(=O)c1cccs1)O2	-1.3
11	C=CCC/C=N/NC(=O)CCCCCCC(=O)NO	-1.2
12	C[C@@H]1CN([C@H](C)CO)C(=O)Cc2cc(NS(=O)(=O)c3ccc(Cl)cc3)ccc2O[C@@H]1CN(C)Cc1ccc(C(=O)O)cc1	-1.2
13	CC(C)NC(=O)Nc1ccc2c(c1)CC(=O)N([C@@H](C)CO)C[C@H](C)[C@@H](CN(C)CC1CC1)O2	-0.2
14	Cc1ccc(S(=O)(=O)Nc2ccc3c(c2)C(=O)N([C@H](C)CO)C[C@@H](C)[C@@H](CN(C)Cc2ccc(C(=O)O)cc2)O3)cc1	-0.7
15	CC(C)NC(=O)Nc1cccc2c1O[C@H](CN(C)CC1CC1)[C@@H](C)CN([C@H](C)CO)C2=O	0.4
16	C[C@H]1CN([C@@H](C)CO)C(=O)c2cc(NS(=O)(=O)c3ccc(F)cc3)ccc2O[C@@H]1CN(C)S(=O)(=O)c1ccc(Cl)cc1	0.0
17	O=C(CCCCCCC(=O)N/N=C/c1ccc(Br)o1)NO	-0.1
18	Cc1ccc(S(=O)(=O)Nc2ccc3c(c2)C(=O)N([C@@H](C)CO)C[C@@H](C)[C@@H](CN(C)Cc2ccccc2)OCCCC[C@H](C)O3)cc1	-1.3
19	COc1ccc(S(=O)(=O)Nc2cccc3c2O[C@H](CN(C)Cc2ccc(C(=O)Nc4ccccc4N)cc2)[C@H](C)CN([C@H](C)CO)C3=O)cc1	0.4
20	C[C@@H]1CCCCO[C@H](CN(C)C(=O)Nc2ccc3c(c2)OCO3)[C@H](C)CN([C@@H](C)CO)C(=O)c2cc(NS(C)(=O)=O)ccc2O1	-0.4
21	C[C@H]1CN([C@@H](C)CO)C(=O)CCCn2cc(nn2)CO[C@@H]1CN(C)Cc1ccc(C(F)(F)F)cc1	0.6
22	CC(C)NC(=O)N(C)C[C@@H]1Oc2ccc(NC(=O)C3CC3)cc2C(=O)N([C@H](C)CO)C[C@H]1C	1.3
23	C[C@@H]1CN([C@@H](C)CO)C(=O)c2cc(NS(C)(=O)=O)ccc2O[C@@H](C)CCCCO[C@@H]1CN(C)Cc1ccccc1	-1.4
24	Cc1noc(C)c1NC(=O)N(C)C[C@@H]1OCCCC[C@@H](C)Oc2ccc(NC(=O)c3ccccc3)cc2C(=O)N([C@H](C)CO)C[C@@H]1C	-1.3
25	C[C@@H]1CN([C@@H](C)CO)C(=O)c2cccc(NS(=O)(=O)c3ccc(Cl)cc3)c2O[C@H]1CN(C)S(=O)(=O)c1cn(C)cn1	0.5
26	C[C@H]1CCCCO[C@@H](CN(C)Cc2ccncc2)[C@@H](C)CN([C@@H](C)CO)C(=O)c2cc(N(C)C)ccc2O1	-1.3
27	C[C@@H]1CCCCO[C@H](CN(C)C)[C@H](C)CN([C@H](C)CO)C(=O)c2cc(N(C)C)ccc2O1	1.2
28	C[C@H]1CN([C@@H](C)CO)C(=O)Cc2cc(NC(=O)Cn3cnnn3)ccc2O[C@@H]1CN(C)S(=O)(=O)c1ccccc1	-0.4
29	C[C@@H]1CN([C@@H](C)CO)C(=O)c2cc(NC(=O)Cn3cnnn3)ccc2O[C@@H]1CN(C)CC1CCCCC1	-0.7
30	C[C@@H]1CN([C@H](C)CO)C(=O)CCCn2nncc2CO[C@H]1CN(C)S(=O)(=O)c1ccc2c(c1)OCCCO2	0.2
31	COC(=O)C(CC#Cc1ccc2c(c1)[C@]1(C(=O)N2)[C@H](C(=O)N2CCc3cc(OC)c(OC)cc3C2)[C@H]2C(=O)O[C@H](c3ccccc3)[C@H](c3ccccc3)N2[C@@H]1c1ccc(OCCO)cc1)C(=O)OC	0.4
32	Cc1noc(C)c1NC(=O)Nc1cccc2c1O[C@@H](CN(C)C(=O)Nc1c(C)noc1C)[C@@H](C)CN([C@H](C)CO)C2=O	-0.1
33	C[C@@H]1CN([C@@H](C)CO)C(=O)CCCn2cc(nn2)CO[C@@H]1CN(C)C(=O)Nc1ccccc1C(F)(F)F	0.1
34	C[C@H](CO)N1C[C@H](C)[C@@H](CN(C)C(=O)Nc2ccccc2)OCc2cnnn2CCCC1=O	0.6
35	COc1ccc(S(=O)(=O)N(C)C[C@@H]2OCCCC[C@H](C)Oc3ccc(NC(=O)Nc4ccccc4)cc3C(=O)N([C@@H](C)CO)C[C@@H]2C)cc1	-0.4
36	C[C@@H]1CN([C@H](C)CO)C(=O)Cc2cc(NC(=O)Cc3ccccc3)ccc2O[C@H]1CN(C)Cc1ccc(C(=O)Nc2ccccc2N)cc1	0.6
37	C[C@@H]1CN([C@H](C)CO)C(=O)c2cc(NS(=O)(=O)c3cccs3)ccc2O[C@H]1CN(C)Cc1ccc(Cl)c(Cl)c1	0.5
38	COc1ccc(S(=O)(=O)Nc2ccc3c(c2)C(=O)N([C@H](C)CO)C[C@H](C)[C@H](CN(C)S(=O)(=O)c2cn(C)cn2)OCCCC[C@@H](C)O3)cc1	0.2
39	Cc1ccc(S(=O)(=O)Nc2ccc3c(c2)C(=O)N([C@@H](C)CO)C[C@H](C)[C@H](CN(C)S(=O)(=O)c2cccs2)OCCCC[C@H](C)O3)cc1	-1.5
40	C[C@H]1CCCCO[C@@H](CN(C)Cc2ccccc2)[C@@H](C)CN([C@@H](C)CO)C(=O)c2cc(NS(=O)(=O)c3ccc(Cl)cc3)ccc2O1	-0.3

Structures listed so far containing a CF3 group:
No.	Structure	A1 apoptosis 2
2	C[C@H]1CCCCO[C@H](CN(C)C(=O)CCC(F)(F)F)[C@@H](C)CN([C@@H](C)CO)C(=O)c2cc(NC(=O)Nc3ccc4c(c3)OCO4)ccc2O1	0.0
21	C[C@H]1CN([C@@H](C)CO)C(=O)CCCn2cc(nn2)CO[C@@H]1CN(C)Cc1ccc(C(F)(F)F)cc1	0.6
33	C[C@@H]1CN([C@@H](C)CO)C(=O)CCCn2cc(nn2)CO[C@@H]1CN(C)C(=O)Nc1ccccc1C(F)(F)F	0.1

Carrying on:
No.	Structure	A1 apoptosis 2
41	C[C@@H]1CN([C@H](C)CO)C(=O)Cc2cc(NS(=O)(=O)c3ccccc3)ccc2O[C@H]1CN(C)Cc1ccc(C(=O)O)cc1	-0.4
42	CC(C)NC(=O)Nc1ccc2c(c1)C(=O)N([C@@H](C)CO)C[C@H](C)[C@@H](CN(C)C(=O)Nc1ccc(F)cc1)OCCCC[C@@H](C)O2	-1.0
43	C[C@@H]1CCCCO[C@H](CN(C)CC2CC2)[C@@H](C)CN([C@H](C)CO)C(=O)c2cc(NC(=O)Nc3ccc4c(c3)OCO4)ccc2O1	0.1
44	C[C@H]1CN([C@@H](C)CO)C(=O)c2cc(NS(=O)(=O)c3cccs3)ccc2O[C@H]1CN(C)Cc1ccc(C(F)(F)F)cc1	-0.5
45	Cc1noc(C)c1NC(=O)N(C)C[C@H]1Oc2ccc(NC(=O)Cc3ccccc3)cc2CC(=O)N([C@H](C)CO)C[C@@H]1C	0.5
46	C[C@@H]1CCCCO[C@H](CN(C)C(=O)Cc2ccccc2)[C@H](C)CN([C@H](C)CO)C(=O)c2cc(NS(=O)(=O)c3ccccc3)ccc2O1	1.5
47	Cc1noc(C)c1S(=O)(=O)Nc1ccc2c(c1)C(=O)N([C@H](C)CO)C[C@H](C)[C@@H](CN(C)C(=O)Nc1ccc(F)cc1)O2	-0.4
48	C[C@@H]1CCCCO[C@H](CN(C)C(=O)Cc2ccccc2)[C@H](C)CN([C@H](C)CO)C(=O)c2cc(NS(=O)(=O)c3cn(C)cn3)ccc2O1	-0.2
49	C[C@H]1CN([C@@H](C)CO)C(=O)c2cccc(NC(=O)Nc3ccccc3)c2O[C@H]1CN(C)C(=O)NC1CCCCC1	1.0
50	O=C(CCCCC(=O)N/N=C/c1cccc(O)c1O)NO	0.7
51	C[C@@H]1CCCCO[C@@H](CN(C)S(C)(=O)=O)[C@H](C)CN([C@H](C)CO)C(=O)c2cc(NS(=O)(=O)c3cn(C)cn3)ccc2O1	1.1
52	C[C@H](CO)N1C[C@H](C)[C@@H](CN(C)CC2CC2)Oc2c(NC(=O)Nc3ccc4c(c3)OCO4)cccc2C1=O	-0.4
53	C[C@H]1CN([C@@H](C)CO)C(=O)Cc2cc(NC(=O)NC3CCCCC3)ccc2O[C@@H]1CN(C)Cc1ccccc1	0.2
54	C[C@H]1CCCCO[C@H](CN(C)S(=O)(=O)c2cccs2)[C@@H](C)CN([C@@H](C)CO)C(=O)c2cc(NC(=O)Nc3cccc4ccccc34)ccc2O1	-0.4
55	C[C@@H]1CN([C@H](C)CO)C(=O)Cc2cc(NC(=O)C3CC3)ccc2O[C@@H]1CN(C)S(=O)(=O)c1cccs1	0.8
56	COc1ccc(S(=O)(=O)N(C)C[C@@H]2Oc3ccc(NS(=O)(=O)c4cn(C)cn4)cc3CC(=O)N([C@@H](C)CO)C[C@@H]2C)cc1	-0.8
57	C[C@@H]1CN([C@H](C)CO)C(=O)c2cccc(NC(=O)Nc3ccccc3)c2O[C@@H]1CN(C)CC1CCCCC1	-0.3
58	Cc1ccc(S(=O)(=O)Nc2cccc3c2O[C@H](CN(C)C(=O)Nc2c(C)noc2C)[C@H](C)CN([C@H](C)CO)C3=O)cc1	-0.1
59	COc1ccc(NC(=O)N(C)C[C@@H]2Oc3c(NC(=O)CCCCCC(=O)Nc4ccccc4N)cccc3C(=O)N([C@@H](C)CO)C[C@@H]2C)cc1	0.5
60	Cc1noc(C)c1NC(=O)Nc1ccc2c(c1)C(=O)N([C@@H](C)CO)C[C@@H](C)[C@@H](CN(C)C(=O)C1CCCCC1)OCCCC[C@@H](C)O2	0.3
61	COc1ccc(S(=O)(=O)Nc2ccc3c(c2)C(=O)N([C@@H](C)CO)C[C@@H](C)[C@H](CN(C)CC2CCCCC2)O3)cc1	-2.1
62	C[C@H]1CN([C@@H](C)CO)C(=O)CCCn2nncc2CO[C@H]1CN(C)Cc1ccncc1	-0.2
63	C[C@@H]1CCCCO[C@@H](CN(C)C(=O)Nc2ccccc2)[C@@H](C)CN([C@@H](C)CO)C(=O)c2cc(NC(=O)Nc3ccccc3)ccc2O1	0.6
64	COc1ccc(S(=O)(=O)Nc2ccc3c(c2)CC(=O)N([C@@H](C)CO)C[C@H](C)[C@H](CN(C)S(=O)(=O)c2cn(C)cn2)O3)cc1	-0.3
65	C[C@@H]1CN([C@H](C)CO)C(=O)CCCn2cc(nn2)CO[C@H]1CN(C)S(=O)(=O)c1ccc2c(c1)OCCCO2	-0.1
66	C[C@@H]1CN([C@H](C)CO)C(=O)Cc2cc(NS(C)(=O)=O)ccc2O[C@@H]1CN(C)C(=O)Nc1ccc(F)cc1	-1.0
67	CC(C)NC(=O)N(C)C[C@H]1Oc2c(NC(=O)Nc3ccc4c(c3)OCO4)cccc2C(=O)N([C@@H](C)CO)C[C@H]1C	0.6
68	C[C@@H]1CN([C@H](C)CO)C(=O)c2cc(NS(C)(=O)=O)ccc2O[C@@H](C)CCCCO[C@@H]1CN(C)Cc1ccncc1	0.2
69	Cc1ccc(S(=O)(=O)Nc2ccc3c(c2)C(=O)N([C@H](C)CO)C[C@@H](C)[C@H](CN(C)S(=O)(=O)c2ccc(F)cc2)OCCCC[C@H](C)O3)cc1	-1.3
70	C[C@@H]1CCCCO[C@H](CN(C)C(=O)CCCN(C)C)[C@@H](C)CN([C@H](C)CO)C(=O)c2cc(NC(=O)CCCN(C)C)ccc2O1	-0.9

Molecules listed so far that have a COOH group (three):
No.	Structure	A1 apoptosis 2
12	C[C@@H]1CN([C@H](C)CO)C(=O)Cc2cc(NS(=O)(=O)c3ccc(Cl)cc3)ccc2O[C@@H]1CN(C)Cc1ccc(C(=O)O)cc1	-1.2
14	Cc1ccc(S(=O)(=O)Nc2ccc3c(c2)C(=O)N([C@H](C)CO)C[C@@H](C)[C@@H](CN(C)Cc2ccc(C(=O)O)cc2)O3)cc1	-0.7
41	C[C@@H]1CN([C@H](C)CO)C(=O)Cc2cc(NS(=O)(=O)c3ccccc3)ccc2O[C@H]1CN(C)Cc1ccc(C(=O)O)cc1	-0.4

Bioassay records (PubChem)

Not all compounds are listed; rates above refer to the full screens.
